Mtb hypoxia inh: Mtb hypoxia fluorescent reporter inhibition. M. tuberculosis hypoxia-regulated fluorescent reporter, fluorescence. fluorescence inhibition, % (test concentration not listed). 300,000 tested, 0.1% active;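 active = 35 to 45% if threefold the growth effect, above 45% if 1.5-fold the growth effect; inactive = the rest, general growth blockers included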;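 note: wells of about 50 µL received 100 nL stock; 0% = vehicle wells and 100% = reference inhibitor wells; whole bacteria with a GFP reporter of the hypoxia response; strong numbers were not always called active; many hits fall short of the cut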
Sa ugtP lethal: compounds lethal to S. aureus RN4220 ugtP deletion mutant. OD600 growth, 16 h; some inactives read as strong as hits. growth inhibition, % (concentration not given with the values). 330,000 tested, 0.54% active. AID 1259309;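 active = z-score under -3 and OD600 up to 0.15 on both plates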;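 note: plate controls were untreated wells for no effect and antibiotic for full effect; wells of about 80 µL received 100 nL stock; the first replicate is given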
Bead autofluor: compound fluorescence in toxin protease inhibitor counterscreen | fluorescence intensity (concentration not given with the values) | compound autofluorescence counterscreen, microsphere flow cytometry; stronger effect = higher value | 360,000 tested, 3.1% active | AID 624483;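 active = at least 3 SD above the mean of all compounds, about 16000 in these data; inconclusive = too few beads counted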;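 note: 100 nL of 1 mM stock went into each well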
RN4220 kill: S. aureus RN4220 growth inhibition | OD600, 16 h | inhibition, % (concentration not given with the values) | 330,000 tested, 0.33% active | AID 1259311;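 active = z-score of -3 or lower and OD600 up to 0.18 on both plates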;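 note: plate controls were untreated cells for no effect and reference antibiotic for full effect; stock transfer was 100 nL into about 80 µL; one replicate is shown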
BJeLR lethal: kills HRASV12-expressing BJeLR cells; BJeLR (HRASV12) viability, CellTiter-Glo ATP luminescence, 48 h; reference of the scale not given here; inhibition, % (concentration not given with the values); 300,000 tested, 0.17% active; AID 1554;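 active = replicate mean above 50%; inconclusive = above 50% but judged a plate artefact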;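 note: 50 nL library stock added to about 25 µL; numbers are from one replicate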
PrP UTR inh: inhibition of PrP 5' UTR reporter expression; 340,000 tested, 0.35% active; AID 488862; inhibition, % (concentration not given with the values); cell-based PrP 5' UTR mRNA reporter, plate reader;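 active = every replicate at 50% or more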;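 note: 0 = median of the neutral control wells; tested in H4 reporter cells; numbers are from one replicate; inactives centre near -14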
Mtb hypoxia inh growth: recorded beside Mtb hypoxia inh, whose call it bears; growth inhibition, %; measured here: M. tuberculosis growth (absorbance);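 0% = vehicle and 100% = reference antibiotic; read after six days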
Active calls of the source: *; u = inconclusive; x = not tested or not shown.

#	canonical_smiles	Mtb hypoxia inh	RN4220 kill	Sa ugtP lethal	PrP UTR inh	Mtb hypoxia inh growth	Bead autofluor	BJeLR lethal
1	COc1ccc(C2=NOC(C(=O)NCc3ccc(F)cc3)C2)cc1OC (configuration not stated)	3	3.2	2	-12	6	11257	40
2	O=[N+]([O-])c1ccc(CSc2nc3ncc(Br)cc3[nH]2)cc1	14	3.7	7	x	11	x	4
3	O=C(O)CCCCNCc1ccccc1	-5	-1.4	-1	-9	-9	9294	-3
4	O=C1CCC(O)CCN1CCSc1ccc(Br)cc1 (configuration not stated)	8	5.8	5	x	4	x	x
5	CC(=O)C1CCC2C3CC(C)=C4CC(O)CCC4(C)C3CCC12C (configuration not stated)	-5	-2.4	60	-7	-2	2948	x
6	CS(=O)(=O)N1CCN(C2C3CC4CC(C3)CC2C4)CC1 (configuration not stated)	11	2.4	5	-37	-3	4643	-1
7	O=C(CSc1nnc(Cc2ccccc2)o1)Nc1ccc(Br)cn1	4	7.2	-7	-26	6	5487	-3
8	CC(C)C12CN3CC(C(C)C)(CN(C1)C31C(=O)Nc3ccccc31)C2=O (configuration not stated)	2	2.3	-3	-5	6	3739	0
9	CC(C)(C)c1ccc(C2C(C#N)=C(N)Oc3n[nH]c(-c4cccnc4)c32)cc1 (configuration not stated)	0	5.3	3	-14	-1	5425	2
10	O=c1c2nncn2c2cc(C(F)(F)F)ccc2n1CCNc1ncc(C(F)(F)F)cc1Cl	12	-0.9	4	-15	7	5438	-2
11	O=C(Cc1ccc(Cl)c(Cl)c1)NN=Cc1cccnc1	0	1.3	-2	x	3	x	x
12	CCOC(=O)CC1C(=O)NCCN1S(=O)(=O)c1ccc(OC)cc1 (configuration not stated)	15	4.1	3	-14	-2	3285	4
13	Cc1cc(-c2nnc(CCC(=O)NC(C)(C)C34CC5CC(CC(C5)C3)C4)o2)no1	x	x	x	-16	x	7039	-6
14	COc1ccc(NC(=S)NC(=O)/C=C/c2ccco2)cc1	11	-0.4	79	-12	-2	4361	-4
15	CCOC(=O)n1c(=O)n(Cc2ccc(Cl)c(Cl)c2)c2ccccc21	x	-15	-6	-9	x	2136	1
16	Clc1ccccc1NCSC1=NCCS1	26	4.4	4	-14	9	2794	x
17	CC(C)(C)C(=O)Nc1nc(-c2ccc3c(c2)OCO3)cs1	-72	5.5	0	-107	-2	3131	-4
18	O=S(=O)(c1ccc(-c2ccon2)s1)N1CCN(CCN2CCOCC2)CC1	-11	-2.6	1	-16	5	3972	-1
19	COc1cc(C(=O)NN=Cc2sccc2C)cc(OC)c1OC	-1	1.8	6	x	12	x	x
20	O=c1c2ccccc2nc(COc2ccccc2)n1/N=C/c1cc([N+](=O)[O-])ccc1O	x	x	x	-19	x	10183	-12
21	C[N+](C)(C)CC#CCOC(=O)Nc1cccc(Cl)c1	0	2.6	-4	-16	9	5805	3
22	O=C(/C=C/c1ccco1)Nc1ccc(CN2CCOCC2)cc1	7	4.3	15	-27	6	x	-7
23	CC1(C)Cc2c(sc3nnn(Cc4ccc(Cl)cc4)c(=O)c23)CO1	-8	-4.4	-10	-4	-4	2338	x
24	Cc1cc(NC(=O)/C=C/c2ccccc2)no1	12	3.6	7	-51	10	10652	3
25	N#Cc1c(N)n(CCOC(=O)c2ccc(Cl)cc2)c2nc3ccccc3nc12	-1	-19	-13	4	6	2820	3
26	CC(C)(C)N(Cc1ccccc1)C(=O)CSc1ncn[nH]1	4	1.4	13	-16	4	4208	-3
27	Cc1ccc(N2C(=O)c3ccccc3C2Nc2ccccc2F)nc1 (configuration not stated)	16	-4.4	-2	-8	18	5732	-9
28	COc1ccc(NC(=O)CN(C)C(=O)c2ccc(OCc3ccccc3)c(OC)c2)cc1	12	4.1	8	-14	3	x	-2
29	Cc1cccc(C)c1NC(=S)NCc1ccncc1	3	1.2	6	-25	-6	5875	13
30	O=C(NNC(=O)c1ccc(-n2cncn2)c([N+](=O)[O-])c1)c1ccc(Cl)cc1	-8	4.4	7	3	2	4229	-5
31	O=C(NCCCN1CCOCC1)c1ccc2c(c1)N(Cc1ccc(F)cc1)CCS2	-5	0.9	2	-7	9	5578	2
32	COC(=O)C1=C(C)N(Cc2ccccc2)C(=S)NC1c1ccc(Br)cc1 (configuration not stated)	13	-13	0	x	13	x	x
33	Cc1noc(C)c1COC(=O)CCOc1ccccc1	3	-0.7	4	-15	4	17725*	-5
34	Cc1ccc(-n2[nH]c(=O)c3cccnc32)cc1	2	2.1	-4	-13	-5	16502*	-13
35	COC(=O)c1cn(CC(=O)N2CCCCCC2)c2ccccc12	14	5.3	5	-12	15	2981	-2
36	COc1ccc(OCC(=O)NCCCn2ccnc2)cc1	2	3.0	2	-35	1	5795	-6
37	CC(Cc1ccccc1)NC=O (configuration not stated)	x	-0.1	1	-1	x	5429	-1
38	Cc1nnc(SCC(=O)Nc2nc3c(s2)CC(C)CC3)s1 (configuration not stated)	0	4.2	-14	-13	3	2674	13
39	COc1ccc(-n2c(SCC(=O)Nc3sc4c(c3C#N)CCCC4)nnc2-c2ccc(O)cc2)cc1	8	9.8	-6	-1	4	u	13
40	CCOc1ccc(OCC)c(NS(=O)(=O)c2cn(C)cn2)c1	-7	-2.5	-2	-13	-18	4607	5
41	Cc1sc2ncnc(N3CCN(Cc4ccccc4)CC3)c2c1-c1ccccc1	6	2.6	11	-18	-1	6433	0
42	CCOC(=O)NN=Cc1cccc(OC)c1OC/C=C/c1ccccc1	9	-0.8	0	x	3	x	x
43	COc1ccc(NC(=O)COC(=O)c2cc(S(=O)(=O)N3CCCC3)ccc2O)cc1	5	2.9	5	-27	6	4462	x
44	CCOC(=O)C1=C(C)Nc2ccccc2N=C1NC(=O)CCCN1C(=O)c2ccccc2C1=O	-4	1.4	-4	-9	3	4064	0
45	COc1ccc(-c2nc(NC(=O)c3c(C)noc3C)sc2C)cc1	12	6.1	8	-17	5	5450	x
46	CC1=C(C(=O)Nc2cc(C(=O)N(C)Cc3ccccc3)ccc2C)SCCO1	2	9.3	6	-17	-3	5611	-18
47	NC(CO)c1nnc(C(CC(=O)O)NC(=O)C2CCNCC2)o1 (configuration not stated)	12	4.1	-5	x	14	x	x
48	O=C(CN(c1cccc(C(F)(F)F)c1)S(=O)(=O)c1ccc(Cl)c([N+](=O)[O-])c1)NCc1ccccc1Cl	8	27	37	-27	-1	2591	-1
49	O=C(CCc1ccccc1)Nc1ccc(F)cc1F	5	2.9	5	-23	6	4987	-10
50	O=C(O)C1CN(C(=O)c2cccc(Br)c2)C1	-6	-0.9	-2	-2	5	4675	-5

In another format: three of the compounds above
Results follow in this order: Mtb hypoxia inh	RN4220 kill	Sa ugtP lethal	PrP UTR inh	Mtb hypoxia inh growth	Bead autofluor	BJeLR lethal
34: Cc1ccc(-n2[nH]c(=O)c3cccnc32)cc1
→ 2	2.1	-4	-13	-5	16502*	-13
42: CCOC(=O)NN=Cc1cccc(OC)c1OC/C=C/c1ccccc1
→ 9	-0.8	0	x	3	x	x
18: O=S(=O)(c1ccc(-c2ccon2)s1)N1CCN(CCN2CCOCC2)CC1
→ -11	-2.6	1	-16	5	3972	-1

The list continues.
#	canonical_smiles	Mtb hypoxia inh	RN4220 kill	Sa ugtP lethal	PrP UTR inh	Mtb hypoxia inh growth	Bead autofluor	BJeLR lethal
51	CC(CC(=O)Nc1ccc(N(C)C)cc1)=NNC(=O)c1ccncc1	x	7.5	1	x	x	x	x
52	N#CC1(NC(=O)CSc2nnc(COc3ccccc3F)n2N)CCCCC1	8	5.5	10	-8	4	u	-3
53	CSc1ccc(C(=O)C2CCCN(Cc3cccn3-c3cccnc3)C2)cc1 (configuration not stated)	4	12	1	-53	2	4278	-6
54	Cn1nc(C(=O)Nc2nc3ccc(S(C)(=O)=O)cc3s2)ccc1=O	x	-0.1	-5	2	x	3738	4
55	CC(C)c1ccccc1NC(=O)Nc1ccc(F)cc1F	-10	7.7	3	-8	8	4441	-6
56	CCOC(=O)C1=C(C)NC(C)=C(C(=O)OCC)C1C1=COCCO1	x	-0.8	6	-8	x	5041	-6
57	Cc1ccc(/C=N/NC(=O)CCSc2ccccc2)cc1	x	x	x	-20	x	2535	-3
58	O=C(O)c1ccc(N/N=C/c2ccnc3ccccc23)cc1	x	x	x	-62	x	5003	0
59	O=c1cc2n(c(=O)[nH]1)CCC1=C2CCCC1	x	0.4	8	-11	x	3628	1
60	CC(C)n1cc(C(=O)N2CCCC(Nc3ccc(F)c(F)c3)C2)cn1 (configuration not stated)	0	0.9	6	-5	0	5145	-1
61	CCOc1ccc(N(CC(=O)NCc2ccc(OC)cc2)S(=O)(=O)c2c(C)[nH]c(=O)[nH]c2=O)cc1	-8	1.6	-4	3	-3	3995	1
62	Cc1c(NC(=O)c2ccc(Cl)nc2)cccc1-c1nc2cccnc2s1	1	1.7	6	-3	4	4194	7
63	Nc1nonc1-n1nnc(C(=O)N/N=C/c2ccccc2F)c1-c1cccs1	x	x	x	-19	x	5361	14
64	Cc1ccc(Cn2c(Sc3nnc(C)s3)nc3c2c(=O)[nH]c(=O)n3C)cc1	0	-2.0	-4	6	12	6065	-7
65	Cc1nc(NC(=O)c2ccccc2)sc1-c1csc(Nc2ccc(C(=O)O)cc2)n1	-9	19	37	-10	-4	3762	3
66	Cn1cccc1C(=O)Nc1ccc(Cl)c(S(=O)(=O)N2CCCCC2)c1	6	7.6	-2	-23	7	6963	x
67	N#Cc1c(-c2ccccc2)c(-c2ccccc2)nn(CC(=O)NNC(=O)Nc2ccccc2)c1=O	-4	-9.4	1	-17	10	2764	17
68	COc1ccc(CNC(=O)C(=O)c2cn(CC(=O)N3CCCC3)c3ccccc23)cc1	7	-0.7	7	-21	-14	4907	-1
69	CC1CCCCC1NC(=O)c1nn(C)c(=O)c2ccccc12 (configuration not stated)	0	0.4	0	-8	16	4739	-1
70	Cn1c(=O)c2c(nc(NCCOc3ccc(F)cc3)n2C)n(C)c1=O	15	1.8	3	7	11	4260	3
71	Cc1oc(-c2cc3c(cc2Cl)OCO3)nc1CN1CCCC1c1ccc(F)cc1 (configuration not stated)	-10	-1.1	46	-21	-6	5250	-4
72	NCC(CC(=O)O)c1ccc(Cl)cc1 (configuration not stated)	-7	-4.3	3	0	1	2363	1
73	O=C(/C=C/c1ccccc1)NCCc1c[nH]c2ccccc12	17	1.0	1	-31	1	5987	-9
74	O=[N+]([O-])c1ccc2c(c1)/C(=N\O)c1ccccc1-2	x	x	x	-34	x	3836	0
75	COc1cccc(CN2CCCC(C(=O)c3ccc4c(c3)OCO4)C2)c1OC (configuration not stated)	-14	2.9	10	-27	-10	4092	7
76	CCN(CC)S(=O)(=O)c1ccc(N2CCc3cc(OC)c(OC)cc3C2)nc1	6	2.6	13	-14	5	3824	-2

Entries listed so far that contain an aryl thioether with sulfur outside any ring (ten):
#	canonical_smiles	Mtb hypoxia inh	RN4220 kill	Sa ugtP lethal	PrP UTR inh	Mtb hypoxia inh growth	Bead autofluor	BJeLR lethal
2	O=[N+]([O-])c1ccc(CSc2nc3ncc(Br)cc3[nH]2)cc1	14	3.7	7	x	11	x	4
4	O=C1CCC(O)CCN1CCSc1ccc(Br)cc1 (configuration not stated)	8	5.8	5	x	4	x	x
7	O=C(CSc1nnc(Cc2ccccc2)o1)Nc1ccc(Br)cn1	4	7.2	-7	-26	6	5487	-3
26	CC(C)(C)N(Cc1ccccc1)C(=O)CSc1ncn[nH]1	4	1.4	13	-16	4	4208	-3
38	Cc1nnc(SCC(=O)Nc2nc3c(s2)CC(C)CC3)s1 (configuration not stated)	0	4.2	-14	-13	3	2674	13
39	COc1ccc(-n2c(SCC(=O)Nc3sc4c(c3C#N)CCCC4)nnc2-c2ccc(O)cc2)cc1	8	9.8	-6	-1	4	u	13
52	N#CC1(NC(=O)CSc2nnc(COc3ccccc3F)n2N)CCCCC1	8	5.5	10	-8	4	u	-3
53	CSc1ccc(C(=O)C2CCCN(Cc3cccn3-c3cccnc3)C2)cc1 (configuration not stated)	4	12	1	-53	2	4278	-6
57	Cc1ccc(/C=N/NC(=O)CCSc2ccccc2)cc1	x	x	x	-20	x	2535	-3
64	Cc1ccc(Cn2c(Sc3nnc(C)s3)nc3c2c(=O)[nH]c(=O)n3C)cc1	0	-2.0	-4	6	12	6065	-7
